A1 inh: inhibitors of the anti-apoptotic protein A1, read as caspase activation. caspase activation, % (concentration not given with the values). MEF A1-2A-BIM cells, Caspase-Glo 3/7 luminescence, 3 h; percent of clofoctol response, vehicle zero. 0.066% of 330,000 active;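 active = over half of replicate activation scores above 10%, or exactly half above 10 with the replicate mean above 10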;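 also: wells of about 30 µL received 50 nL stock; many hits fall short of the cut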
T cruzi inh: T. cruzi replication inhibition; T. cruzi beta-gal in NIH3T3, luminescence, 90 h; inhibition, % (no concentration beside the values); 1.4% of 300,000 active;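 active = mean inhibition across valid replicates above about 55%, limit read from the data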;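 also: signal also drops with host cell toxicity which is not excluded here; 0% = plate median of DMSO wells and 100% = zero luminescence signal; higher percent means less beta-gal luminescence so fewer parasites; stock transfer was 50 nL into about 50 µL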
Calb FLC: affects C. albicans growth with fluconazole; C. albicans CaCi-2 (fluconazole-resistant clinical isolate) + fluconazole, Alamar Blue growth, 48 h; growth inhibition, % (concentration not given with the values); 0.57% of 300,000 active;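 active = most replicates above 75%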;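 also: all wells also contain fluconazole at 8 µg/ml as a sub-toxic cotreatment; 0% = median of DMSO wells and 100% = median of geldanamycin control wells; wells of about 8 µL received 7.5 nL stock; the first replicate is given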
LANA-H2A inh: blocks KSHV LANA binding to histone H2A/H2B | Q9QR71 | 0.6% of 320,000 active | inhibition, % (no concentration beside the values) | cell-free LANA-H2A/H2B peptide, fluorescence polarization | AID 2629; in the data active = inhibition mostly above about 10%, no sharp cut-off; inactive = mostly below about 6.7%;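 also: stock transfer was 7.5 nL into about 10 µL; 0% = median of vehicle wells and 100% = median of positive control wells; one replicate is shown; the record names a cut of 25% in any replicate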
Target sequence (Q9QR71 whole entry, looked up): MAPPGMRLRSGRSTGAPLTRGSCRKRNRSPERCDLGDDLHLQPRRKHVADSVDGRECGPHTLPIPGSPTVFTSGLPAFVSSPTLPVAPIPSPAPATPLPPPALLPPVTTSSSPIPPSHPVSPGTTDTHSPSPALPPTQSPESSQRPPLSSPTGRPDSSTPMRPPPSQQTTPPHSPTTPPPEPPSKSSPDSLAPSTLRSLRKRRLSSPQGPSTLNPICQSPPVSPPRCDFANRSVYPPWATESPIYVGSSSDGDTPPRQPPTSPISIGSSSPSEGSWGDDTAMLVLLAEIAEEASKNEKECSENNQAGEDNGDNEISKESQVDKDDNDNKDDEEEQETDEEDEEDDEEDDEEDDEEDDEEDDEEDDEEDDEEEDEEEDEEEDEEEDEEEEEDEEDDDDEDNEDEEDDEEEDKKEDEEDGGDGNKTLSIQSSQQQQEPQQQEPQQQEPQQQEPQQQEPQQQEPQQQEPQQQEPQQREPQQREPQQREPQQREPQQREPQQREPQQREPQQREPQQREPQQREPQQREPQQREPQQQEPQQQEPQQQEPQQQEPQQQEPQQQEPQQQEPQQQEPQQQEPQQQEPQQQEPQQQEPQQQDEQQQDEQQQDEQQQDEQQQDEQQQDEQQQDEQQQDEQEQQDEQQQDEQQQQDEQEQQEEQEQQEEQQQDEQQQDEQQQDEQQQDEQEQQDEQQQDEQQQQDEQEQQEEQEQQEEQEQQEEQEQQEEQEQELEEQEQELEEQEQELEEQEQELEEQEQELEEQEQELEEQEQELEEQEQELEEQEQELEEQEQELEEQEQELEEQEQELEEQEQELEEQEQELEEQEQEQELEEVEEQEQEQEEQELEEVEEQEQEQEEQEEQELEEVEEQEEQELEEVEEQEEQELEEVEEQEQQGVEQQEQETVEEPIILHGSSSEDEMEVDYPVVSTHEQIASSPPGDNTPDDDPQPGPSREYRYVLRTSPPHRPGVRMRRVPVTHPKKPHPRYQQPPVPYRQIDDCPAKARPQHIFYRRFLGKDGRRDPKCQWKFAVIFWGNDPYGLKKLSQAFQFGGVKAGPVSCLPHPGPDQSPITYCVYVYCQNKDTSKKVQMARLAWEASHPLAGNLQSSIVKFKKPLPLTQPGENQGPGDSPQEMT
Beta apoptosis: beta cell apoptosis inhibition; protection from apoptosis, % (no concentration beside the values); 0.8% of 300,000 active; INS-1E cytokine-induced death, ATP luminescence, 48 h; percent of positive-control rescue, neutral wells zero;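 active = all replicates at 75% or more, or half of them and the mean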;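 also: 0% = cytokine-treated negative control wells and 100% = positive control rescue; higher means more ATP so stronger rescue from cytokine killing; wells of about 40 µL received 100 nL stock; the first replicate is given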
Ecoli rRNA inh: inhibitors of bacterial rRNA selective over humanized ribosomes; 1.6% of 350,000 active; GFP signal change (wild-type ribosome), % (no concentration beside the values); AID 720706; E. coli WT GFP vs humanized-ribosome RFP mutants, fluorescence, 24 h; active compounds read low; DMSO median 0, no signal -100;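 active = significant combined selectivity score with lowered wild-type GFP, culture density cut under 30%, mutant RFP and density less affected; inactive = any of these conditions unmet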; also: one replicate is shown; some compounds called inactive have numbers as strong as hits
Beta2AR agonist: human beta-2 adrenergic receptor agonism by FAP. P07550. Am2.2-beta2AR cells, FAP receptor internalization, flow cytometry; reference of the scale not given here. response, % (concentration not given with the values). 0.43% of 340,000 active;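 active = response above a set limit, near 3 SD of response in nonfluorescent compounds, cut at about 42% in these data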;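 also: stock transfer was 100 nL into about 11 µL; a reference agonist was the positive control; negative values mostly stem from fluorescent compounds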
ALR inh: blocks human ALR sulfhydryl oxidase activity. AID 485317. purified ALR, DTT oxidation, H2O2 HRP-luminol luminescence. 3.8% of 290,000 active. inhibition, % (test concentration not listed). P55789;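 active = mean and each replicate at 75% or more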;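 also: stock transfer was 7.5 nL into about 7.5 µL; 0% = neutral wells and 100% = wells with inactivated enzyme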
Ecoli rRNA inh OD600: second read-out of Ecoli rRNA inh, no call of its own (marks repeat the call); OD600 change, %; measured here: OD600 growth;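 optical density of the mix in the first replicate; 0 = DMSO median and -100 = no signal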
Ecoli rRNA inh RFP: second read-out of Ecoli rRNA inh, no call of its own (marks repeat the call); RFP signal change, %; measured here: RFP humanized mutant strains;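 first replicate; 0 = DMSO median and -100 = no signal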
An asterisk follows results filed as active. These rows are one share of the data. The share of hits here may be higher or lower than overall.

CN1CCN(CC(O)COCc2ccc3c(c2)OCO3)CC1 (configuration not stated) was read as A1 inh 0.5, T cruzi inh 10.0, Calb FLC -13.2, LANA-H2A inh -2.0, Beta apoptosis -6.2, Ecoli rRNA inh 11.8, Beta2AR agonist 1.5, ALR inh -3.7, Ecoli rRNA inh OD600 10.2 and Ecoli rRNA inh RFP -2.2.
c1ccc(CCNc2ccc3nncn3n2)cc1 was read as A1 inh 0.1, T cruzi inh -12.0, Calb FLC -5.7, LANA-H2A inh 2.7, Beta apoptosis -9.6, Ecoli rRNA inh -3.0, Beta2AR agonist 7.7, ALR inh -7.0, Ecoli rRNA inh OD600 3.7 and Ecoli rRNA inh RFP -0.5.
Screening O=C(Cn1nnc(-c2ccccc2Cl)n1)N1CCN(S(=O)(=O)c2ccc(Cl)cc2)CC1 returned A1 inh -0.1, T cruzi inh 9.6, Calb FLC -3.9, LANA-H2A inh -0.2, Beta apoptosis 4.1, Beta2AR agonist -17.9 and ALR inh -8.5.
`O=C(CN1CCCCCC1)Nc1ccc(Br)cc1Br` gave A1 inh 0.0, T cruzi inh 8.3, Calb FLC 6.6, LANA-H2A inh 5.4, Beta apoptosis -0.8, Beta2AR agonist -3.1 and ALR inh -0.2.
O=C(NC(=O)c1ccccc1)NC(=O)c1ccccc1 was read as A1 inh -0.7, T cruzi inh -16.5, Calb FLC 23.4, LANA-H2A inh 1.7, Beta apoptosis 1.8, Beta2AR agonist 1.4 and ALR inh 0.5.
Screening CCOC(=O)c1sc2nc(SC)nc(-c3ccc(Cl)cc3)c2c1N returned A1 inh 0.3, T cruzi inh 3.1, Calb FLC 0.2, LANA-H2A inh 0.0, Beta apoptosis 16.3 and Beta2AR agonist -0.2.
O=C(CN(c1cccc(C(F)(F)F)c1)S(=O)(=O)c1ccccc1)N1CCOCC1 was read as A1 inh 0.3, T cruzi inh 0.9, Calb FLC 27.3, LANA-H2A inh 0.3 and Beta2AR agonist 7.9.
Screening Cc1ccc(-c2csc(=S)n2CC(=O)OCC(=O)NC(C)C(C)C)cc1 (configuration not stated) returned A1 inh -0.5, T cruzi inh 19.3, Calb FLC -11.6, LANA-H2A inh -3.6, Beta apoptosis 1.9, Beta2AR agonist -5.8 and ALR inh 31.1.
`COc1ccccc1NC(=O)c1ccc(SCC(=O)NCc2ccccc2Cl)c([N+](=O)[O-])c1` gave A1 inh 0.0, T cruzi inh 20.0, Calb FLC 4.0, LANA-H2A inh 0.6, Beta apoptosis -2.2, Ecoli rRNA inh 13.3, Beta2AR agonist -4.4, ALR inh 1.7, Ecoli rRNA inh OD600 19.4 and Ecoli rRNA inh RFP 2.1.
`O=C1c2oc3ccccc3c(=O)c2C(c2ccc(O)cc2)N1c1nccs1` (configuration not stated) gave A1 inh 0.6, T cruzi inh -7.9, Calb FLC 1.5, LANA-H2A inh 0.6, Beta apoptosis -3.6, Ecoli rRNA inh -7.8, Beta2AR agonist -1.2, ALR inh -6.0, Ecoli rRNA inh OD600 -4.1 and Ecoli rRNA inh RFP 0.3.
Screening Cc1ccccc1SCC(=O)OCC(=O)NCc1ccccc1 returned A1 inh -1.8, LANA-H2A inh 0.1, Beta apoptosis -11.3, Ecoli rRNA inh -9.5, Beta2AR agonist -5.6, ALR inh -1.0, Ecoli rRNA inh OD600 -0.5 and Ecoli rRNA inh RFP 1.9.
Cc1cc(=O)oc(C)c1C(=O)Nc1ccc2ncccc2c1 was read as A1 inh -0.6, T cruzi inh 3.7, Calb FLC -0.2, LANA-H2A inh 8.4, Beta apoptosis -10.7, Beta2AR agonist 2.2 and ALR inh -71.8.
COc1cccc(CN(C(=O)c2ccc([N+](=O)[O-])cc2)C2CCS(=O)(=O)C2)c1 (configuration not stated) was read as A1 inh -0.1, T cruzi inh 4.8, Calb FLC 1.4, LANA-H2A inh 0.6, Beta apoptosis -1.4, Ecoli rRNA inh 4.2, Beta2AR agonist -12.6, ALR inh -8.5, Ecoli rRNA inh OD600 14.8 and Ecoli rRNA inh RFP -1.7.
`Cc1ccccc1NC(=O)c1cccc2c1C(=O)N(C1CCCCC1)C2` gave A1 inh 1.1, T cruzi inh 25.4, Calb FLC -10.8, LANA-H2A inh 6.7, Beta apoptosis -4.6, Ecoli rRNA inh 3.7, Beta2AR agonist -2.1, ALR inh -3.1, Ecoli rRNA inh OD600 7.8 and Ecoli rRNA inh RFP -0.4.
For CC(C)OC(=O)c1ccc(NC(=O)CSc2nc3ncccc3[nH]2)cc1 the results were A1 inh -0.8, T cruzi inh -5.0, Calb FLC 38.6, LANA-H2A inh -2.7, Beta apoptosis 14.0, Ecoli rRNA inh -23.5, Beta2AR agonist -6.1, ALR inh 98.4*, Ecoli rRNA inh OD600 -27.4 and Ecoli rRNA inh RFP 3.8.
Cc1cc(CN2CCCC(CO)(Cc3cccc(Cl)c3)C2)n[nH]1 (configuration not stated) was read as A1 inh 1.3, T cruzi inh -7.1, Calb FLC -4.0, LANA-H2A inh 3.0, Beta apoptosis 8.2, Beta2AR agonist 2.2 and ALR inh -0.5.
`COc1cc(OC)cc(C(=O)NNC(=S)NC(=O)c2cccnc2)c1` gave A1 inh -0.6, T cruzi inh -9.2, Calb FLC -7.1, LANA-H2A inh 4.1, Beta apoptosis 6.0, Ecoli rRNA inh -31.9, Beta2AR agonist -8.2, ALR inh 97.9*, Ecoli rRNA inh OD600 -37.0 and Ecoli rRNA inh RFP -8.8.
`O=C(NCCN1CCOCC1)c1cccc(Cl)c1` gave A1 inh 0.9, T cruzi inh -20.6, Calb FLC 5.4, LANA-H2A inh -0.7, Beta apoptosis -5.6, Ecoli rRNA inh 5.1, Beta2AR agonist -14.6, ALR inh -2.7, Ecoli rRNA inh OD600 7.6 and Ecoli rRNA inh RFP -3.6.
For CCOC(=O)C(C)Sc1nnc(NC(=O)c2ccc(C)c([N+](=O)[O-])c2)s1 (configuration not stated) the results were A1 inh -1.6, LANA-H2A inh 0.1, Beta apoptosis -2.2 and Beta2AR agonist 9.3.
CC(C)(C)c1cc(CCC(=O)N2CCC2)cc(C(C)(C)C)c1O was read as A1 inh 0.5, T cruzi inh 7.4, Calb FLC -39.0, LANA-H2A inh 1.9, Beta apoptosis -7.4, Ecoli rRNA inh -1.7, Beta2AR agonist 10.9, ALR inh 2.2, Ecoli rRNA inh OD600 -10.4 and Ecoli rRNA inh RFP 1.1.

Reprinted from the part before: 2 compounds, then new ones.
For CCOC(=O)C(C)Sc1nnc(NC(=O)c2ccc(C)c([N+](=O)[O-])c2)s1 (configuration not stated) the results were A1 inh -1.6, LANA-H2A inh 0.1, Beta apoptosis -2.2 and Beta2AR agonist 9.3.
CC(C)(C)c1cc(CCC(=O)N2CCC2)cc(C(C)(C)C)c1O was read as A1 inh 0.5, T cruzi inh 7.4, Calb FLC -39.0, LANA-H2A inh 1.9, Beta apoptosis -7.4, Ecoli rRNA inh -1.7, Beta2AR agonist 10.9, ALR inh 2.2, Ecoli rRNA inh OD600 -10.4 and Ecoli rRNA inh RFP 1.1.
`Cn1nnnc1SCC(=O)NC1CCCC1` gave A1 inh 0.3, T cruzi inh -4.0, Calb FLC -1.5, LANA-H2A inh 1.2, Beta apoptosis -1.4, Ecoli rRNA inh 5.2, Beta2AR agonist -2.4, ALR inh -1.4, Ecoli rRNA inh OD600 15.9 and Ecoli rRNA inh RFP -1.2.
For O=S(=O)(c1cccc(-c2n[nH]c(=S)n2-c2ccccc2Cl)c1)N1CCOCC1 the results were A1 inh 0.2, LANA-H2A inh -3.4, Beta apoptosis -1.0, Ecoli rRNA inh -7.3, Beta2AR agonist 3.7, ALR inh 98.9*, Ecoli rRNA inh OD600 1.6 and Ecoli rRNA inh RFP 3.9.
`Cc1ccc(NC(=O)/C=C/c2ccc3c(c2)OCO3)cc1S(=O)(=O)N1CCOCC1` gave A1 inh -1.1, T cruzi inh 15.7, Calb FLC -9.0, LANA-H2A inh -0.8, Beta apoptosis -0.4, Ecoli rRNA inh -20.4*, Beta2AR agonist -0.3, ALR inh -0.8, Ecoli rRNA inh OD600 1.3* and Ecoli rRNA inh RFP 6.9*.
`CC(=O)NC1=NN(C(C)=O)C2(CCCCC2)S1` gave A1 inh 0.8, T cruzi inh -11.1, Calb FLC -4.9, LANA-H2A inh -3.6, Beta apoptosis 3.7, Beta2AR agonist 2.5 and ALR inh -5.7.
`CCOc1ccccc1NC(=O)NCCCCc1ccccc1` gave A1 inh 0.4, T cruzi inh 9.7, Calb FLC -8.6, LANA-H2A inh 4.8, Beta apoptosis -4.6, Ecoli rRNA inh 2.4, Beta2AR agonist -8.2, ALR inh -5.8, Ecoli rRNA inh OD600 -3.0 and Ecoli rRNA inh RFP -0.8.
`CC1CC(=O)Nc2ccccc2N1C(=O)CSc1ccc2ccccc2n1` (configuration not stated) gave A1 inh -0.2, LANA-H2A inh -4.1, Beta apoptosis -34.2, Ecoli rRNA inh -23.6, Beta2AR agonist 7.4, ALR inh -7.1, Ecoli rRNA inh OD600 -23.8 and Ecoli rRNA inh RFP -1.8.
Screening Cc1cc(C)c(C)c(S(=O)(=O)N2C(=S)NC(=O)C2CC(C)C)c1C (configuration not stated) returned A1 inh 0.3, T cruzi inh 7.4, Calb FLC -9.7, Beta apoptosis 14.1 and Beta2AR agonist 0.6.
N#Cc1ccc(OCC(=O)N2CCN(S(=O)(=O)c3cccs3)CC2)cc1 was read as A1 inh -0.7, T cruzi inh -2.7, Calb FLC -1.4, LANA-H2A inh -0.5, Beta apoptosis -3.5, Beta2AR agonist 6.8 and ALR inh -3.6.
Screening CCOC(=O)[C@@H]1[C@H]2COc3ccc(Br)cc3[C@H]2N2C(=O)N(c3ccc(F)cc3)C(=O)[C@@]12C returned A1 inh 0.8, T cruzi inh 7.3, Calb FLC -6.5, LANA-H2A inh 0.6, Beta apoptosis -6.8, Beta2AR agonist 4.4 and ALR inh -0.7.
For COc1ccc(OC)c(CNCc2ccc3c(c2)OCO3)c1 the results were A1 inh 0.0, T cruzi inh -6.4, Calb FLC -2.6, LANA-H2A inh 1.2, Beta apoptosis -8.6, Ecoli rRNA inh 4.5, Beta2AR agonist -15.6, ALR inh -24.6, Ecoli rRNA inh OD600 3.6 and Ecoli rRNA inh RFP 6.6.
For CC(N=c1ccccn1C(=O)Nc1ccc(F)cc1)c1ccco1 (configuration not stated) the results were A1 inh -1.3, T cruzi inh 10.9, Calb FLC 14.1, LANA-H2A inh -1.4, Beta apoptosis -6.8, Ecoli rRNA inh 7.4, Beta2AR agonist 4.5, ALR inh -8.1, Ecoli rRNA inh OD600 1.2 and Ecoli rRNA inh RFP 2.2.
Screening CC1CCN(CCCCOc2ccc(F)cc2)CC1 returned A1 inh -0.6, T cruzi inh -5.5, Calb FLC -13.4, LANA-H2A inh 1.8, Beta apoptosis -1.8, Beta2AR agonist 4.0 and ALR inh 3.5.
Screening COc1ccc(OS(=O)(=O)Cc2ccccc2)cc1 returned A1 inh 0.6, T cruzi inh -13.8, Calb FLC -8.9, LANA-H2A inh 2.3, Beta apoptosis -5.7, Ecoli rRNA inh -11.6, Beta2AR agonist -0.6, ALR inh -12.2, Ecoli rRNA inh OD600 -9.4 and Ecoli rRNA inh RFP 1.2.
For CCOc1ccc2c(c1)C(C)=CC(C)(C)N2S(=O)(=O)c1ccc(C)cc1 the results were T cruzi inh 46.9, Calb FLC 112.5*, Ecoli rRNA inh 12.0, Beta2AR agonist 11.7, Ecoli rRNA inh OD600 11.2 and Ecoli rRNA inh RFP 3.0.

Screens: PubChem BioAssay, several laboratories
